# Screens (PubChem)
# AmpC nodet inh: Promiscuous and Specific Inhibitors of AmpC Beta-Lactamase (assay without detergent) | 71,000 compounds, 1.8% hits | P00811 | Potency, µM (highest dose often 28.7 µM), for inactives: top-dose activity change, negative = inhibition | AmpC nitrocefin hydrolysis, absorbance 480 nm, no detergent; potencies from a single point are estimates; active = falling curve, for most hits resting on a single point; inconclusive = weak or doubtful change; inactive = flat or rising curve; also: % of control where 0% means no effect; about half of the hits show no inhibition at the top dose; a quarter of the inactives give rising signals
# Target sequence (P00811 whole entry, looked up): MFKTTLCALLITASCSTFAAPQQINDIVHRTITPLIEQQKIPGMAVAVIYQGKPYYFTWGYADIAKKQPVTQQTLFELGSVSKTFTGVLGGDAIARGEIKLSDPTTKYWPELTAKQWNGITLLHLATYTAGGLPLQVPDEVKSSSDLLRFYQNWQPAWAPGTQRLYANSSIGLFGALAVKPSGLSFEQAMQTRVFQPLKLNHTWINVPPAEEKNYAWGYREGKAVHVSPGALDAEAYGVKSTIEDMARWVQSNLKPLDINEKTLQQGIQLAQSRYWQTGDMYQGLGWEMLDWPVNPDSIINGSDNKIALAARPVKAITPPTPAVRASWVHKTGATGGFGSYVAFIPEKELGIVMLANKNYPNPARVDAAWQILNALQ
#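 AmpC in 20 mM phosphate buffer pH 7.0 was preincubated 15 min at room temperature with compounds. Nitrocefin (800 uM stock) was then added and hydrolysis followed at 480 nm every 20 s for 4 min.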
# The depositor's hits bear a star; u = inconclusive; [ ] = dose if it differs, or a comment. Potency is read from the fitted curve at half-maximal effect. Only part of the results is shown; rates above refer to the full screens.
structure | AmpC nodet inh
CCC(OC(=O)c1cccs1)C(=O)NC1CCCCC1 (stereo not drawn) | 5.9%
CN1C(=O)CC(N2CCN(c3ncccn3)CC2)C1=O (stereo not drawn) | -4.1%
COc1cc(OC)cc(-c2nc(N)n[nH]2)c1 | -1.4%
CNc1ccnc(-c2ccccc2OC)n1 | 1.2%
CCOC(=O)c1cnc(-n2nc(C)cc2C)nc1NC1CCCCC1 | -4.3%
CCOC(=O)c1sc2nc(CSCC(=O)OCc3ccc(C(=O)OC)o3)[nH]c(=O)c2c1C | -0.4%
Cc1cc(NC(=O)Cn2nc(C(F)(F)F)c3c2CCC3)no1 | -2.1%
CN(C1CCCCC1)S(=O)(=O)c1ccc(NC(=O)C2CCCCC2C(=O)O)cc1 (stereo not drawn) | 4.7%
Cc1cccc(CNc2ncnc3ccc(-c4cccc(NS(C)(=O)=O)c4)cc23)c1 | u
COC(=O)c1cccc(NC(=O)c2ccc(S(=O)(=O)N3CCN(C)CC3)cc2)c1 | 55.3%
O=C(Nc1ccc(S(=O)(=O)C(F)F)cc1)c1cccc(S(=O)(=O)N2CCOCC2)c1 | -0.1%
COc1ccc(CCNC(=O)c2ccncc2)cc1OC | 10.9%
C=CCN1C(=O)CN=C1NCc1ccccc1 | 33.5%
COc1ccccc1N1CCN(C(=O)c2sc3nc(-c4ccc(F)cc4)cn3c2C)CC1 | 126.5%
CCCn1c(NC(=O)c2ccccc2)nc2ccccc21 | 3.7%
Cc1ccc(NC(=O)N2CCC(c3nc4c(nnn4Cc4cccc(Cl)c4)c(=O)[nH]3)CC2)cc1 | -24.3%
O=C(CSc1nnc2ccccn12)c1ccc2c(c1)OCCO2 | -3.9%
COC(=O)N1CCC2(CCN(C(=O)Nc3cccc(C#N)c3)CC2)CC1 | 6.9%
Cn1cc(SCC(=O)Nc2nc3ccccc3s2)c2ccccc21 | u
O=C(NCc1ccco1)c1cc2sccc2n1Cc1ccc(F)cc1 | u
O=C(NCc1ccco1)c1cc2ccc(O)cc2oc1=O | u
Cc1ccc(NC(=O)NCC(c2cccnc2)N2CCOCC2)cc1 (stereo not drawn) | -2.3%
CCOC(=O)c1ccc(N2C(=O)CC(N(C)CCc3ccc(OC)c(OC)c3)C2=O)cc1 (stereo not drawn) | 114.9%
CN(c1ccc(OCC(=O)N2CCCCC2)cc1)S(=O)(=O)c1cccs1 | 24.4%
N#Cc1ccc(C23CC4CC(CC(C4)C2)C3)[nH]c1=O | -9.6%
CC(=O)c1cccc(NC(=O)C2CCCN(S(C)(=O)=O)C2)c1 (stereo not drawn) | -8.9%
O=C(CCCC1=NS(=O)(=O)c2ccccc2N1)N1CCC2(CC1)OCCO2 | 2.0%
CCN1CCN(c2nc3ccccc3nc2C(C#N)C(=O)OCc2ccccc2)CC1 (stereo not drawn) | 105.4%
COC(=O)C1CCN(C(=O)c2ccc(NC(C)=O)cc2)CC1 | 8.5%
CC(=O)c1ccc(NC(=O)CSCCO)cc1 | -2.1%
CC(=O)NCC1=C(NC(C)=O)C2CC1C(C)(C)C2C (stereo not drawn) | 27.8%
COc1ccc(OC)c(S(=O)(=O)N2CCC(C(=O)NCCC3=CCCCC3)CC2)c1 | 96.3%
COc1ccc(C2CC(c3cc(OC)ccc3OC)n3nnnc3N2)cc1 (stereo not drawn) | 37.4%
COc1c(Br)cc(Br)cc1/C=N/n1c(C)nnc1C | 89.5%
C=CCN(C(=O)CCC(=O)Nc1cc(C)on1)C(C(=O)NC1CCCC1)c1cccnc1 (stereo not drawn) | 1.5%
CC1=Nn2c(nnc2-c2ccccn2)SC1 | -8.0%
C=CCn1c(=O)c2c(nc3n2CCS3)n(C)c1=O | -3.7%
COc1ccc2ccccc2c1C1CC(=O)N2CN(Cc3ccco3)CSC2=C1C#N (stereo not drawn) | 3.98µM*[single pt active]
COc1ccc(C2C(=O)N(C3CCCCCC3)CC(=O)N2Cc2ccccc2)cc1OC (stereo not drawn) | 116.3%
COc1cccc(-c2nc(N3CCN(C)CC3)c3ccccc3n2)c1 | 73.2%
CC1CCCN(Cc2nc3c(c(=O)n(C)c(=O)n3C)n2CC(=O)c2ccccc2)C1 (stereo not drawn) | -6.8%
CCOC(=O)N1CCC(NS(=O)(=O)c2cc(Br)cc3c2N(C(=O)CC)CC3)CC1 | 60.9%
O=C(O)Cc1cccnc1C(=O)O | 30.4%
CN1CC[C@@]23c4ccccc4N[C@H]1[C@]21CCN(C)[C@@H]3Nc2ccccc21 | -7.8%[12.8 µM]
CS(=O)(=O)N(CC(=O)NC1CCCC1)c1ccc2c(c1)OCCO2 | 7.9%
CCOc1cc(C2C(C(=O)OC(C)C)=C(C)N=C3SCCC(=O)N32)ccc1OC(C)=O (stereo not drawn) | 112.8%
COc1ccc(NC(=O)N2CC[C@@]3(CCCN(C(=O)c4cnccn4)C3)C2)cc1 | 0.6%
CCC(C)c1ccc(OCC(=O)O)cc1 (stereo not drawn) | -6.8%
C=CCn1c(SCc2ccc(C#N)cc2)nnc1-c1cccc(Cl)c1 | 40.1%
O=[N+]([O-])c1ccc2c(c1)c(S(=O)(=O)O)cc1nonc12 | 5.3%[5.75 µM]

# The listing continues:
structure | AmpC nodet inh
CCC(C)[C@H](NC(=O)NCCCN1CCOCC1)C(=O)OC (stereo partly drawn) | -2.5%
CCCC(=O)Nc1cccc(NC(=O)c2ccc3c(c2)OCCO3)c1 | -13.3%
Cc1cc(C(=O)CN2C(=O)c3ccccc3S2(=O)=O)c(C)n1CC1CCCO1 (stereo not drawn) | 45.8%
COCCN(C(=O)CCC(=O)Nc1ccccn1)C(C(=O)NCCC(C)C)c1ccc(OC)cc1 (stereo not drawn) | 76.7%
CCC(C)(C)n1nnnc1CN1CCN(c2nc3cc(OC)ccc3cc2C#N)CC1 | 81.2%
Cc1nn(C)c(C)c1P(=S)(c1c(C)nn(C)c1C)N(C)C | 19.8%
O=C(CSc1nc(-c2ccco2)cc(C(F)(F)F)n1)NCc1cccs1 | -9.3%
Cc1cc(C)c2cc(CN(CCO)Cc3nnnn3Cc3ccccc3)c(=O)[nH]c2c1 | 95.4%
CCCn1c(C)nc2c(N(C)CCN(C)C)nc(C)nc21 | 13.5%
O=C(c1ccccc1-c1nc(-c2ccc(F)cc2)no1)N1CCCC1 | 77.7%
COc1ccc(CC(=O)Nc2nc3n(n2)C(c2ccccc2)CC(=O)N3)cc1OC (stereo not drawn) | 12.1%
CCOC(=O)C1=C(C)NC2=C(C(=O)C(C(=O)OC)C(C)C2)C1c1ccc(OC)c(O)c1 (stereo not drawn) | 31.9%
O=C1COc2ccc3ccccc3c2CN1 | 1.3%
C=CCc1cccc(CNc2nc3ccccc3n2CCC)c1O | -15.2%
CS(=O)(=O)N(Cc1ccccc1)c1ccccn1 | 4.2%
Cc1cccc2cc(CN(CCCO)C(=O)Nc3cccc(Cl)c3)c(=O)[nH]c12 | 108.4%
O=C(CN1C(=O)c2ccccc2S1(=O)=O)N1CCc2ccccc21 | -13.7%
COc1ccccc1CNc1ncncc1-c1cccc(C#N)c1 | 29.7%
Cc1ccnc(N2CCC(C(=O)Nc3nnc(C)s3)CC2)n1 | 30.6%
CC(C)OC(=O)CSc1nnc(-c2cnccn2)n1-c1ccc(Cl)cc1 | 72.9%
COc1ccc(OCc2ccc(-c3nc4ccccc4c(=O)n3N)o2)cc1 | 35.8%
COc1ccc(-c2cc(C(F)(F)F)nc(SCCC(=O)N3CCOCC3)n2)cc1 | 146.3%
O=C(Nc1ccc(F)cc1)N1CCN(c2nc3ccccc3s2)CC1 | -14.4%
CCOC(=O)CN1C(=O)C(C)(C)Oc2ccc(C(=O)NC(C)(C)CC)cc21 | 31.8%
Cc1noc(C)c1S(=O)(=O)N1CCC(C(=O)N2CCN(c3ccc(Cl)cc3)CC2)CC1 | 115.8%
CCOc1ccc(-c2nnc(SCC(=O)N(CC)CC)n2N)cc1 | 12.7%
O=C(O)CCC(NC(=O)OCc1ccccc1)C(=O)O (stereo not drawn) | -7.2%
O=C(CCc1nc2ccccc2[nH]c1=O)OCC(=O)N1CCc2ccccc21 | 14.5%
CCCS(=O)(=O)N1CCCC(C(=O)NCCCN(C)Cc2ccccc2)C1 (stereo not drawn) | -15.6%
Cc1nc(SCC(=O)Nc2ccc(C)c(F)c2)c2oc3ccccc3c2n1 | 46.2%
Fc1ccc(N2CCN(C(c3cccs3)c3nnnn3C3CCCC3)CC2)cc1 (stereo not drawn) | 34.0%
Cc1cc(OCC(=O)Nc2ccncc2)ccc1Br | 12.6%
CCC(C(=O)OCC(=O)Nc1c(C)n(C)n(-c2ccccc2)c1=O)c1ccccc1 (stereo not drawn) | 23.0%
O=C(NCc1ccccc1)NC1CC2CCC(C1)N2Cc1ccco1 (stereo not drawn) | -12.4%
COC(=O)c1cc(COc2ccc3c4c(c(=O)oc3c2)CCCC4)c(C)o1 | -1.6%
COc1ccccc1NC(=O)Cn1nnc(C(=O)Nc2ccccc2)c1N | -19.8%
COc1cc(S(=O)(=O)n2c(C)nc3ccccc32)ccc1F | 48.4%
O=S(=O)(O)c1cc(N=Nc2cccc3ccccc23)c(O)c2ncccc12 | -4.4%[5.75 µM]
CCCCN1CC(O)=C(c2nc3ccccc3[nH]2)C1=N | -15.4%
O=C(CN1CCCCCC1)NCCc1ccc(F)cc1 | 21.3%
CC(=O)OC1CC(C)(C)N(OC(=O)CCCN2C(=O)c3ccccc3C2=O)C(C)(C)C1 | 102.0%
Cn1ncc2c(N3CCOCC3)ncnc21 | -7.6%
O=C(C1=C(O)C(=O)N(CCOCCO)C1c1cccs1)c1cccs1 (stereo not drawn) | 11.7%
CCc1nc(SCC(=O)N2CCN(c3ccccc3)CC2)c2c(=O)n(C)c(=O)n(C)c2n1 | 2.6%
CC(C)(C)c1ccc(OCCn2ccccc2=O)cc1 | 67.5%
COc1ccc(Cc2c(O)nc(SC)n(C(C)=O)c2=O)cc1 | u
O=C(c1ccccc1)c1cccn1CC(=O)N1CCN(C2CCCCC2)CC1 | 35.7%
CCCC(=O)Nc1nc2ccc(NC(=O)c3ccc(Br)o3)cc2s1 | 1.8%
CCOC(=O)c1cc(C)n(CCCN2CCOCC2)c1C | 51.5%
CC1(C)CC(=O)C(C=Nc2ccc(O)cc2)=C(O)C1 | -10.8%

# Arranged by SMILES length (low to high): part of the list above.
structure | AmpC nodet inh
Cc1cc(OCC(=O)Nc2ccncc2)ccc1Br | 12.6%
COc1ccc(Cc2c(O)nc(SC)n(C(C)=O)c2=O)cc1 | u
CCCC(=O)Nc1nc2ccc(NC(=O)c3ccc(Br)o3)cc2s1 | 1.8%
O=C(C1=C(O)C(=O)N(CCOCCO)C1c1cccs1)c1cccs1 (stereo not drawn) | 11.7%
O=C(c1ccccc1)c1cccn1CC(=O)N1CCN(C2CCCCC2)CC1 | 35.7%
COC(=O)c1cc(COc2ccc3c4c(c(=O)oc3c2)CCCC4)c(C)o1 | -1.6%

# (continued)
structure | AmpC nodet inh
Cc1ccccc1NC1=NC(C)(C)N=C(N)N1 | -5.4%
O=C(NC1CCCCCC1)c1c(F)c(F)c(F)c(F)c1F | -11.6%
COc1cccc(NC(=O)Cc2cn(C)c3ccccc23)c1 | 0.3%
Nc1ccc(-c2nc3c(Cl)c(N)ccc3[nH]2)cc1 | -12.6%
COc1ccc(-c2noc(CSc3nc(N)c(-c4ccccc4)c(=O)[nH]3)n2)cc1 | 2.1%
O=C(NC1CCCC1)C1CCN(S(=O)(=O)N2CCCCC2)CC1 | 0.6%
CC(C)[C@H](NC(=O)NCc1ccc(Cl)cc1)C(=O)O | 6.6%
CCC(C)(C)n1nnnc1C(c1cccs1)N1CCc2ccccc21 (stereo not drawn) | 8.4%
Cc1cc(N(C)C)c(C#N)c(NCc2ccccc2)n1 | -2.3%
CCC(=O)Nc1cc(C(F)(F)F)ccc1N1CCOCC1 | 18.2%
O=C(NCCCN1CCCC1=O)c1ccc(Cl)c(NS(=O)(=O)c2ccc(F)cc2)c1 | 0.2%
COC(=O)c1ccc(COc2cccc(OC)c2)o1 | 6.2%
C=CC(C)Sc1nc2c(c(=O)n(C)c(=O)n2C)n1Cc1ccccc1Cl (stereo not drawn) | 33.0%
Cc1ccc(N2C(=O)c3n[nH]c(C)c3C2c2ccccn2)cc1 (stereo not drawn) | -2.7%
COc1cccc(N(C(=O)c2ccco2)C(C(=O)NC2CCCC2)c2cccnc2)c1 (stereo not drawn) | 43.3%
CC12CC(NC(=O)N1CCc1ccccc1)c1ccccc1O2 (stereo not drawn) | 30.5%
O=C(Nc1ccc(Cl)cn1)c1cnn2cccnc12 | 7.2%
C1=C(CCNc2ncnc3nc[nH]c23)CCCC1 | 0.3%
NNC(N)=S | 11.4%
CSc1nc2ccc3nc(NC(=O)c4cccs4)sc3c2s1 | 4.2%
O=C(CCn1ccc2ccccc21)Nc1ccc(N2CCOCC2)cc1 | 27.6%
Cn1cnc2c1c(=O)n(Cc1ccccc1)c(=O)n2C | 2.0%
Cc1noc(C)c1C(=O)Nc1sc(C)c(C)c1C#N | -2.0%
Cc1cccc(Nc2ncccc2C(=O)O)c1C | -12.7%
COc1cc(NC(=O)c2cc(-c3cccc(O)c3)on2)cc(OC)c1OC | -2.4%
COC(=O)C1=C(C)Nc2ncnn2C1c1ccco1 (stereo not drawn) | -4.6%
O=C1c2ccncc2C(=O)N1C1CCCCC1 | -3.1%
O=C(CCc1ccc(S(=O)(=O)N2CCOCC2)cc1)Oc1ccccc1 | 26.6%
CCOC(=O)C1CCN(c2c(NC3CCCc4ccccc43)c(=O)c2=O)CC1 (stereo not drawn) | 33.9%
COC(=O)c1ccc(COc2ccc3c(C)c(C)c(=O)oc3c2C)o1 | 2.2%
CC1CCN(CCCNC(=O)Cc2c(C(=O)O)n(C)c3ccccc23)CC1 | -5.8%
